FGF22 binding = binders of recombinant human FGF22 by thermal shift; 1.5% of 340,000 active; AID 651658; SYPRO orange fluorescence; percent of sucrose octasulfate shift, DMSO zero; Q9HCT0; calls only at 9.99 µM;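 active = melting point raised past a set limit in the mean and every replicate; three in four hits are not shown here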
Target sequence (Q9HCT0 whole entry, looked up): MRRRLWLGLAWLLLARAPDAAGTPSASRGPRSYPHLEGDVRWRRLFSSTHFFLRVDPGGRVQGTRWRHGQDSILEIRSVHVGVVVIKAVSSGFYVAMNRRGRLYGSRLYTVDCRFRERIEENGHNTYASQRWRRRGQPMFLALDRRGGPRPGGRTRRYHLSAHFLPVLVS
AF4-AF9 inh = inhibitors of human MLL-AF4/AF9 interaction; P42568; AlphaScreen, biotin-AF4 peptide binding to FLAG-AF9; inhibition, % at 10 µM; 0.47% of 350,000 active; AID 651704;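 active = every replicate reaching a set inhibition limit, whatever the replicate mean, cut at about 25% in these data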;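 note: 0% = plate neutral control median and 100% = total signal loss; the record names both 10 and 1 µM as test concentration; the first replicate is given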
Target sequence (P42568 whole entry, looked up): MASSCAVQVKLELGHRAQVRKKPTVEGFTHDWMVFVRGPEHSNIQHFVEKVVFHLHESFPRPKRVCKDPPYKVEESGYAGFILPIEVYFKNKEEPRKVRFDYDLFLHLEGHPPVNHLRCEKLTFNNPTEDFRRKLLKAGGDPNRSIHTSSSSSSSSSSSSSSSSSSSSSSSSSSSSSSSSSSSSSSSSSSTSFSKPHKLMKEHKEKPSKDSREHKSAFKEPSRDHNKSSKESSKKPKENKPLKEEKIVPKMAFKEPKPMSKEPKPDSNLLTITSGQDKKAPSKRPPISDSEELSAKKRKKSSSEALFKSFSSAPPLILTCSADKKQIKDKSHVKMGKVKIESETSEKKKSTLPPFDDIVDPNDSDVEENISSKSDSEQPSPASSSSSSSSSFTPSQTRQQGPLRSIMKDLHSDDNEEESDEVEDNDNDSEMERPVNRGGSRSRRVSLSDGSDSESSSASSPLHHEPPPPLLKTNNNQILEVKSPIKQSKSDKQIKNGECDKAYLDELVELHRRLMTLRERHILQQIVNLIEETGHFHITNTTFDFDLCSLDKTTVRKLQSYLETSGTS
* = called active by the depositor; i = inactive; & = joins results of further samples. Some of the compounds tested, so the mix of outcomes need not match the whole.

SMILES	FGF22 binding	AF4-AF9 inh
CNC[C@@H]1OCCCC[C@@H](C)Oc2ccc(NS(=O)(=O)c3ccc(C)cc3)cc2C(=O)N([C@H](C)CO)C[C@@H]1C	i	-7.1
Cc1cc(C)cc(N2C(=O)CSC2c2cccc([N+](=O)[O-])c2)c1 (configuration not stated)	i	2.1
COc1ccc(NC(=O)Nc2ccc3c(c2)CC(=O)N([C@H](C)CO)C[C@@H](C)[C@H](CN(C)S(=O)(=O)c2ccc(Cl)cc2)O3)cc1	i	1.0
C[C@H](CO)N1C[C@H](C)[C@@H](CN(C)C(=O)C2CCCCC2)OCCCC[C@H](C)Oc2ccc(NC(=O)Nc3ccc(C(F)(F)F)cc3)cc2C1=O	i	-0.7
Cc1ccccc1S(=O)(=O)N[C@H]1CC[C@H](CCn2cc(Cc3ccccc3)nn2)O[C@H]1CO	i	-0.1
COc1ccccc1C(=O)Nc1ccc2c(c1)C(=O)N(C)C[C@@H](OC)[C@H](C)CN[C@@H](C)CO2	i	-1.6
CO[C@@H](CN(C)S(=O)(=O)c1cccc(Cl)c1)[C@H](C)CN([C@H](C)CO)S(=O)(=O)c1cccc(Cl)c1	i	-9.2
CCCN1C[C@@H](C)[C@@H](OC)CN(C)C(=O)c2cc(NC(=O)Nc3c(C)noc3C)ccc2OC[C@@H]1C	i	-0.2
O=C(c1cccnc1)N1C[C@H]2[C@@H](c3ccccc31)[C@@H](CO)N2C(=O)Nc1ccc(F)cc1	i	-3.4
C[C@@H]1CCCCO[C@@H](CN(C)Cc2ccc(C(=O)O)cc2)[C@H](C)CN([C@@H](C)CO)C(=O)c2cc(NS(=O)(=O)c3cccs3)ccc2O1	i	-0.2
O=C(Nc1ccc(F)cc1)N[C@H]1CC[C@H](CCNC(=O)c2cc(Cl)cc(Cl)c2)O[C@H]1CO	i	-0.7
COc1cccc(S(=O)(=O)N2C[C@H](O)COC[C@@H]3O[C@@H](CC(=O)Nc4ccccc4)CC[C@H]32)c1	i	-0.4
COc1cccc(C#Cc2ccc3c(c2)[C@@H]2[C@@H](CCN2C(=O)CC2CC2)[C@@H](CO)N3)c1	i	-1.3
C[C@@H]1CN([C@@H](C)CO)C(=O)c2cc(NS(=O)(=O)c3cccs3)ccc2O[C@@H](C)CCCCO[C@@H]1CN(C)C(=O)NC1CCCCC1	i	-4.1
CC(=O)N1[C@@H]2c3ccc(C4=CCCCC4)c(=O)n3C[C@H]1[C@H](CO)[C@H]2C(=O)NC1CCC1	i	-2.0
Cc1ccccc1-c1ccccc1[C@H]1[C@@H](C#N)N(C(=O)c2cccc(F)c2)[C@H]1CO	i	-1.3
O=C(N[C@H]1CC[C@H](CCn2cc(C3(O)CCCC3)nn2)O[C@H]1CO)C1CCCCC1	i	6.3
O=C(c1ccccc1F)N1C[C@H]2[C@@H](c3ccccc31)[C@H](CO)N2C(=O)c1ccccc1	i	-0.5
O=C(C[C@H]1C=C[C@@H](NC(=O)CCN2CCCCC2)[C@H](CO)O1)Nc1ccc(-c2ccccc2)cc1	i	6.2
C[C@H]1CN([C@@H](C)CO)C(=O)c2cc(NC(=O)CCN3CCOCC3)ccc2O[C@@H]1CN(C)S(=O)(=O)c1ccc(Cl)cc1	i	1.0
CO[C@@H]1CN(C)C(=O)c2ccc(NC(C)=O)cc2OC[C@H](C)N(S(=O)(=O)c2cn(C)cn2)C[C@H]1C	i	0.4
O=C(Nc1ccc(F)cc1)N1CCCCN2[C@H](CO)[C@@H](c3ccc(-c4cccc(F)c4)cc3)[C@H]2C1	i	4.4
CO[C@H]1CN(C)C(=O)c2ccc(NS(=O)(=O)c3ccc(Cl)cc3)cc2OC[C@@H](C)NC[C@@H]1C	i	-12.2
C[C@@H]1CN([C@H](C)CO)C(=O)Cc2cc(NS(=O)(=O)c3cn(C)cn3)ccc2O[C@@H]1CN(C)Cc1ccccc1	i	-1.8
O=C(C1=C[C@@H](c2ccc3c(c2)OCO3)C[C@@H](OCc2ccc(CO)cc2)O1)N1CCN(Cc2ccc3c(c2)OCO3)CC1	i	1.5&6.4

7 compounds picked at random from the list so far:
SMILES	FGF22 binding	AF4-AF9 inh
Cc1ccccc1-c1ccccc1[C@H]1[C@@H](C#N)N(C(=O)c2cccc(F)c2)[C@H]1CO	i	-1.3
O=C(c1cccnc1)N1C[C@H]2[C@@H](c3ccccc31)[C@@H](CO)N2C(=O)Nc1ccc(F)cc1	i	-3.4
CNC[C@@H]1OCCCC[C@@H](C)Oc2ccc(NS(=O)(=O)c3ccc(C)cc3)cc2C(=O)N([C@H](C)CO)C[C@@H]1C	i	-7.1
O=C(c1ccccc1F)N1C[C@H]2[C@@H](c3ccccc31)[C@H](CO)N2C(=O)c1ccccc1	i	-0.5
CCCN1C[C@@H](C)[C@@H](OC)CN(C)C(=O)c2cc(NC(=O)Nc3c(C)noc3C)ccc2OC[C@@H]1C	i	-0.2
C[C@@H]1CCCCO[C@@H](CN(C)Cc2ccc(C(=O)O)cc2)[C@H](C)CN([C@@H](C)CO)C(=O)c2cc(NS(=O)(=O)c3cccs3)ccc2O1	i	-0.2
O=C(Nc1ccc(F)cc1)N[C@H]1CC[C@H](CCNC(=O)c2cc(Cl)cc(Cl)c2)O[C@H]1CO	i	-0.7

Next compounds:
SMILES	FGF22 binding	AF4-AF9 inh
CCCC(=O)Nc1ccc2c(c1)C(=O)N(C)[C@@H]1CC[C@@H](CC(=O)Nc3cn(C)nc3C)O[C@H]1CO2	i	-1.4
C[C@@H]1CCCCO[C@@H](CN(C)Cc2ccc(C(F)(F)F)cc2)[C@H](C)CN([C@@H](C)CO)C(=O)c2cc(NS(=O)(=O)c3ccc(Cl)cc3)ccc2O1	i	-0.4
COC(=O)C[C@H]1CC[C@@H]2[C@H](COc3ccc(NS(=O)(=O)c4cccc(F)c4)cc3C(=O)N2C)O1	i	0.3
CC=Cc1ccc2n(c1=O)C[C@@H]1[C@@H](CO)[C@H](C(=O)NCc3ccncc3)N(Cc3ccncc3)[C@H]21 (mixture of isomers)	i	-11.4
CN(C)C(=O)C[C@@H]1CC[C@H]2[C@@H](COC[C@@H](O)CN2CC2CCCC2)O1	i	-10.3
CC(C)C#Cc1ccc2c(c1)O[C@H](CN(C)S(=O)(=O)c1cn(C)cn1)[C@@H](C)CN([C@H](C)CO)S2(=O)=O	i	-0.1
O=C(Nc1ccc(C(F)(F)F)cc1)N[C@H]1CC[C@H](CCn2cc(C3(O)CCCC3)nn2)O[C@H]1CO	i	2.9
O=C(Cc1ccccn1)NCC[C@@H]1CC[C@@H](NC(=O)Nc2ccc(C(F)(F)F)cc2)[C@@H](CO)O1	i	2.8
CO[C@@H](CN(C)Cc1ccc2c(c1)OCO2)[C@@H](C)CN(C(=O)c1ccccc1)[C@@H](C)CO	i	1.4
O=C(CCN1CCCCC1)NCC[C@H]1CC[C@H](NC(=O)Nc2ccc(F)cc2)[C@H](CO)O1	i	0.8
C[C@H]1CN([C@@H](C)CO)S(=O)(=O)c2ccc(C#Cc3ccc(F)cc3)cc2O[C@@H]1CN(C)S(C)(=O)=O	i	0.8
COc1ccc(NC(=O)N[C@@H]2C=C[C@H](CC(=O)NC3CCC3)O[C@H]2CO)cc1	i	2.7
C[C@H](O)C#Cc1ccc2c(c1)O[C@H](CN(C)C(=O)C1CCCCC1)[C@H](C)CN([C@@H](C)CO)S2(=O)=O	i	1.2
C[C@H]1CN([C@@H](C)CO)C(=O)c2cccc(NC(=O)c3ccncc3)c2O[C@H]1CN(C)C(=O)Nc1cccc2ccccc12	i	-3.4
C[C@H]1CN([C@@H](C)CO)C(=O)Cc2cc(NS(=O)(=O)c3ccc(F)cc3)ccc2O[C@H]1CN(C)C(=O)Nc1ccccc1	i	-2.4
CO[C@H]1CN(C)C(=O)c2ccc(NS(=O)(=O)c3ccc(Oc4ccccc4)cc3)cc2OC[C@H](C)NC[C@H]1C	i	-3.6
CCCNC(=O)Nc1ccc2c(c1)C(=O)N(C)[C@@H]1CC[C@@H](CC(=O)NCC3CCCCC3)O[C@@H]1CO2	i	-0.6
COC(=O)[C@]12C[C@H](CC(=O)N3CCCC3)C(=O)N(Cc3ccccc3)C1=C[C@H](C1CCCC1)O[C@@H]2C	i	-5.0
O=C(C[C@H]1C[C@H]2c3cc(NC(=O)c4cccnc4)ccc3O[C@H]2[C@@H](CO)O1)NCC1CC1	i	-2.9
CCCc1cn(CC[C@@H]2CC[C@H](NS(=O)(=O)c3ccc(-c4ccccc4)cc3)[C@H](CO)O2)nn1	i	-1.4
CC(C)NC(=O)N1CCCCN2[C@H](CO)[C@H](c3ccc(C#CC4CC4)cc3)[C@H]2C1	i	4.4
C[C@H]1CN([C@@H](C)CO)C(=O)c2cccc(NC(=O)c3nc4ccccc4s3)c2O[C@H]1CN(C)Cc1ccc(Cl)c(Cl)c1	i	5.0
C[C@@H]1CCCCO[C@@H](CN(C)C(=O)c2ccncc2)[C@@H](C)CN([C@H](C)CO)C(=O)c2cc(NC(=O)C3CCCCC3)ccc2O1	i	-7.2
C[C@@H]1CN([C@@H](C)CO)C(=O)c2cc(NC(=O)Cc3cn(C)c4ccccc34)ccc2O[C@@H]1CN(C)CC1CC1	i	9.9
C[C@@H]1CN([C@H](C)CO)C(=O)c2cc(C#CC3CC3)cnc2O[C@@H]1CN(C)C(=O)Nc1ccccc1	i	-0.3

(next part)
SMILES	FGF22 binding	AF4-AF9 inh
C[C@H](CO)N1C[C@H](C)[C@@H](CN(C)C(=O)c2ccccc2F)Oc2ncc(Br)cc2C1=O	i	-1.2
COc1cccc(S(=O)(=O)N(C)C[C@H]2OCc3ccccc3-c3ccccc3C(=O)N([C@H](C)CO)C[C@H]2C)c1	i	7.0
C[C@@H]1CCCCO[C@H](CN(C)Cc2ccc(C(F)(F)F)cc2)[C@H](C)CN([C@H](C)CO)C(=O)c2cc(NS(=O)(=O)c3ccc(F)cc3)ccc2O1	i	-1.3
COc1cccc(CNC(=O)C[C@@H]2CC[C@@H](NC(=O)C3CCOCC3)[C@@H](CO)O2)c1	i	-0.6
CN1CCN(C(=O)C[C@H]2CC[C@@H]3[C@H](COC[C@H](O)CN3C(=O)Cc3ccccc3)O2)CC1	i	3.8
CCCNC(=O)N(C)C[C@H]1Oc2ncc(C3=CCCCC3)cc2C(=O)N([C@@H](C)CO)C[C@@H]1C	i	-8.7
COc1ccc2c3c([nH]c2c1)[C@@H](CO)NCC31CN(C(=O)C2CCCC2)C1	i	-2.7
C[C@H]1CCCCO[C@@H](CN(C)S(=O)(=O)c2cn(C)cn2)[C@@H](C)CN([C@@H](C)CO)C(=O)c2cc(NS(=O)(=O)c3ccccc3)ccc2O1	i	0.4
C[C@H](CO)N1C[C@H](C)[C@H](CN(C)S(=O)(=O)c2ccc(-n3cccn3)cc2)OCc2cn(nn2)CCCC1=O	i	-4.7
CCS(=O)(=O)Nc1ccc2c(c1)C(=O)N(C)C[C@H](OC)[C@H](C)CN(Cc1nccs1)[C@@H](C)CO2	i	-0.7
O=C(Nc1nccs1)[C@@H]1[C@@H](CO)[C@@H]2Cn3c(cccc3=O)[C@H]1N2C(=O)C1CC1	i	1.1
CCCNC(=O)N(C)C[C@H]1Oc2cc(-c3cccnc3)ccc2S(=O)(=O)N([C@@H](C)CO)C[C@@H]1C	i	10.2
CO[C@@H]1CN(C)C(=O)c2ccc(NC(=O)C3CCC3)cc2OC[C@H](C)N(CC2CCCCC2)C[C@@H]1C	i	1.5
O=C(Nc1ccccc1F)N1CCCCN2[C@H](C1)[C@H](c1ccc(C#Cc3ccccc3)cc1)[C@@H]2CO	i	-11.2
Cc1ccc(S(=O)(=O)Nc2cccc3c2O[C@H](CN(C)Cc2ccc4c(c2)OCO4)[C@@H](C)CN([C@H](C)CO)C3=O)cc1	i	-2.2
C[C@@H]1CN([C@@H](C)CO)C(=O)Cc2cc(NC(=O)c3ccncc3)ccc2O[C@H]1CN(C)C(=O)Nc1ccc(C(F)(F)F)cc1	i	-0.8
CNC[C@@H]1Oc2c(NC(=O)Nc3ccccc3)cccc2C(=O)N([C@H](C)CO)C[C@@H]1C	i	2.6
COCC(=O)N1CC2(C1)[C@@H](c1ccc(-c3ccc(F)cc3)cc1)[C@H](CO)N2C(=O)C1CC1	i	1.9
C[C@@H]1CN([C@@H](C)CO)C(=O)c2cc(NC(=O)Nc3ccc(F)cc3)ccc2O[C@@H]1CN(C)S(=O)(=O)c1ccc(Cl)cc1	i	-0.3
CO[C@H](CN(C)C(=O)C1CCOCC1)[C@H](C)CN([C@@H](C)CO)S(=O)(=O)c1ccccc1	i	-0.7
O=C([C@H]1[C@H](CO)[C@H]2Cn3c(cccc3=O)[C@@H]1N2S(=O)(=O)c1ccccc1F)N1CCCCC1	i	-0.6
C[C@H]1CN([C@@H](C)CO)C(=O)c2cc(-c3ccccc3F)cnc2O[C@H]1CN(C)Cc1cccc(F)c1	i	-5.2
C/C=C/c1ccc2c(c1)O[C@@H](CN(C)Cc1ccccn1)[C@H](C)CN([C@H](C)CO)S2(=O)=O	i	4.4
C[C@H](CO)N1C[C@H](C)[C@H](CN(C)C(=O)c2cnccn2)Oc2cc(C#CCC3CCCC3)ccc2S1(=O)=O	i	0.8
COc1cccc(-c2ccc3c(c2)O[C@@H](CN(C)C)[C@@H](C)CN([C@@H](C)CO)S3(=O)=O)c1	i	0.5
C[C@@H]1CCCCO[C@H](CN(C)C(=O)Nc2cccc3ccccc23)[C@H](C)CN([C@H](C)CO)C(=O)c2cc(NS(C)(=O)=O)ccc2O1	i	-9.9
C[C@H]1CN([C@@H](C)CO)S(=O)(=O)c2ccc(C3=CCCC3)cc2O[C@H]1CN(C)Cc1ccncc1	i	-1.1

Given field by field: entries from further up.
CN1CCN(C(=O)C[C@H]2CC[C@@H]3[C@H](COC[C@H](O)CN3C(=O)Cc3ccccc3)O2)CC1
  FGF22 binding: i
  AF4-AF9 inh: 3.8
C[C@H]1CN([C@@H](C)CO)C(=O)c2cc(-c3ccccc3F)cnc2O[C@H]1CN(C)Cc1cccc(F)c1
  FGF22 binding: i
  AF4-AF9 inh: -5.2

High-throughput results deposited in PubChem by Broad Institute.
